# KCNQ2 block – KCNQ2 channel blockers in CHO-K1 cells – cell-based, FluxOR thallium flux, B-score, primary screen (AID 2156). O88943. 20 min; active compounds read low; only compounds with negative scores are shown here; some inactives read as strong as hits. B-score at 10 µM. hit rate 1.1% among 310,000;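 active = fluorescence ratio B-score at most minus 3 library SDs, with starting brightness B-score within 2 library SDs, cut at about -5.5 in these data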
# Target sequence (O88943 whole entry, looked up): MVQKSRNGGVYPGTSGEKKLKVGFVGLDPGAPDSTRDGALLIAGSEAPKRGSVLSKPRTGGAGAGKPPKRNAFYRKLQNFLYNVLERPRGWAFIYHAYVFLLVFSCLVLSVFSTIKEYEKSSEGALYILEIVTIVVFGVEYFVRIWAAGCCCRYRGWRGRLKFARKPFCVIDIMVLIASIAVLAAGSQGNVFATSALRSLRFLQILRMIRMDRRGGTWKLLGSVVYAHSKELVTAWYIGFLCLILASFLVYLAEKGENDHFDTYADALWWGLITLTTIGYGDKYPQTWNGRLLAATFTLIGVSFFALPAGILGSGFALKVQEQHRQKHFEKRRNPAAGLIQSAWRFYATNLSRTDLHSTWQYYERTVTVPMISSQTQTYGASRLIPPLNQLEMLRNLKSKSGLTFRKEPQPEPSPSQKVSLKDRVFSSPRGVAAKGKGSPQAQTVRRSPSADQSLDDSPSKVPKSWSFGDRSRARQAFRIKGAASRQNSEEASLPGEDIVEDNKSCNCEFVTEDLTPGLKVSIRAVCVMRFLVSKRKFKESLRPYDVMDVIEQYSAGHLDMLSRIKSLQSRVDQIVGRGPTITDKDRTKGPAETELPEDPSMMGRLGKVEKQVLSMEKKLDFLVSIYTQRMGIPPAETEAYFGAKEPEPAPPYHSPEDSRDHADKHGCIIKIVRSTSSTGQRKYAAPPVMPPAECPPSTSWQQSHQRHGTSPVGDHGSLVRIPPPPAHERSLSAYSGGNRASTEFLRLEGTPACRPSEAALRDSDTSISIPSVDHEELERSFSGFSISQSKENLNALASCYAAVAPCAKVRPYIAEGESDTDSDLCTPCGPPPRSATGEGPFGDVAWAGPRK
# KCNQ2 block baseline – also measured in KCNQ2 block; calls as there; B-score; measured here: initial fluorescence intensity artifact check;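 brightness before thallium and not channel activity; 0 = typical well and far values either way flag optical interference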
# Active calls of the source: *; i = inactive. Not all compounds are listed; the hit share may differ from the screen's.
smiles	KCNQ2 block	KCNQ2 block baseline
CCCn1nc(NC(=O)CC)c2cc3cccc(C)c3nc21	i	-1.2
CCCOc1ccc(/C=N/Nc2ccccc2[N+](=O)[O-])c(O)c1	i	0.6
COC(=O)C1=C(C)Nc2nc3ccccc3n2C1c1ccccc1F (configuration not stated)	i	-0.02
CSc1ccc(CN(C)C(=O)c2ccc(S(=O)(=O)Nc3ccccc3)cc2)cc1	i	0.66
Cc1ccc(C)c(S(=O)(=O)c2c(C)cc(C)nc2Cl)c1	i	-1.5
C[C@H](NC(=O)[C@@H]1CCC(=O)N1Cc1ccco1)c1ccccc1	i	1.1
COc1ccc(CNCCC(c2ccc(OC)cc2)c2ccccc2OC)cc1 (configuration not stated)	i	-0.12
COc1ccc(Nc2ncnc3sc(-c4ccccc4)cc23)c(OC)c1	i	1.3
CCOC(=O)c1sc2nc(C)nc(NCCc3ccccn3)c2c1C	i	0.02
NC(Cc1c[nH]c2ccccc12)C(=O)Nc1ccccc1 (configuration not stated)	i	-0.57
C/C(CC(=O)Nc1ccc2c(c1)OCCO2)=N\NC(=O)COc1ccc(C)cc1Br	i	1.3
CCc1c(C)nc2c(C)cccc2c1SCCC#N	i	0.45
O=C(N/N=C/c1ccc2c(c1)OCO2)c1ccc(Cl)cc1Cl	i	-1.2
Cc1ccc(CC(=O)Nc2ccc(S(=O)(=O)Nc3ncccn3)cc2)cc1	i	0.75
CCOc1cc(S(=O)(=O)n2c(C)nc3ccccc32)ccc1F	i	2.8
S=C(NCCCn1ccnc1)Nc1cccc(Cl)c1	i	1.2
COc1ccc(NC(=O)CSc2nc(C)cs2)cc1OC	i	2.2
COc1cc(Cl)c(CC(=O)c2c[nH]c3ccccc23)cc1OC	i	1.1
O=C(CSc1nc2ccccc2o1)Nc1nc2ccccc2s1	i	1.4
CCOc1cc(C#N)c(NC(=O)c2ccco2)cc1OCC	i	-0.63

# 6 compounds already listed, sorted by number of heavy atoms, high to low:
smiles	KCNQ2 block	KCNQ2 block baseline
Cc1ccc(CC(=O)Nc2ccc(S(=O)(=O)Nc3ncccn3)cc2)cc1	i	0.75
CCOC(=O)c1sc2nc(C)nc(NCCc3ccccn3)c2c1C	i	0.02
COc1cc(Cl)c(CC(=O)c2c[nH]c3ccccc23)cc1OC	i	1.1
CCOc1cc(C#N)c(NC(=O)c2ccco2)cc1OCC	i	-0.63
NC(Cc1c[nH]c2ccccc12)C(=O)Nc1ccccc1 (configuration not stated)	i	-0.57
Cc1ccc(C)c(S(=O)(=O)c2c(C)cc(C)nc2Cl)c1	i	-1.5

# Other records.
smiles	KCNQ2 block	KCNQ2 block baseline
COc1ccc(NC(=S)Nc2cccc(C(C)=O)c2)cc1OC	i	1.6
Cc1cccc(-c2noc(CNC(=O)c3ccco3)n2)c1	i	-2.9
CC(C)(C)C(=O)NC(=S)Nc1ccccc1C(=O)NC1CCCCC1	i	-2.7
Fc1ccc(-n2ncc3c(SCc4cccnc4)ncnc32)cc1	i	0.24
O=C(CSc1n[nH]c(-c2ccccc2Br)n1)NCCN1C(=O)CSC1=O	i	1.4
COC(=O)C1=C(CS(=O)(=O)c2cc(OC)ccc2OC)NC(=O)NC1c1ccc(O)c(OC)c1 (configuration not stated)	i	0.92
CC(C)(C)c1ccc(OCCn2nc(C(=O)O)c3ccccc3c2=O)cc1	i	-0.03
O=C(CCN1CCN(c2ccccc2)CC1)c1ccc(Cl)cc1	i	0.17
O=C(CSc1nc2ccccc2s1)NCCOc1ccccc1	i	1.8
OC(CN1CCN(c2ccccc2Cl)CC1)c1ccccc1 (configuration not stated)	i	-0.06
CCCN1CCC(NC(=O)Nc2ccc(F)cc2F)CC1	i	-0.45
Cc1cc2c(sc3c(C)ccc(C)c32)c(C)n1	i	-0.04
CSC1=N/C(=C\c2ccccc2Cl)C(=O)N1N(C)C	i	1.4
CC1(C)CC(=O)C2=C(C1)OC(/N=C/N1CCCC1)=C(C#N)C2c1ccccc1 (configuration not stated)	i	-0.3
Cc1ccc(C2CC(C(F)(F)F)n3nc(C(=O)NCc4c(C)nn(C)c4C)c(Cl)c3N2)cc1 (configuration not stated)	i	-1.1
Cc1cc2nc(-c3ccc(SCC(=O)N4CCOCC4)nc3)[nH]c2cc1C	i	-1.1
Cc1nc(-c2ccc(F)cc2)c(CC(=O)N(C)CC(=O)Nc2ccc(F)cc2)s1	i	-1.3
Cc1cc(/C=C2\SC(=Nc3ccccc3)NC2=O)c(C)n1-c1ccc(S(N)(=O)=O)cc1	i	2.9
Cc1ccc(NS(=O)(=O)c2ccc(N/N=C/c3ccncc3)c([N+](=O)[O-])c2)c(C)c1	i	0.54
Cc1ccc(S(=O)(=O)N2CCN(S(=O)(=O)c3ccc(C)cc3)C3OCCOC32)cc1 (configuration not stated)	i	-0.74
Oc1c(CN2CCOCC2)cc(-c2ccccc2)cc1CN1CCOCC1	i	-1.9
O=S(=O)(CCC1CCCCN1)c1ccccc1 (configuration not stated)	i	0.75
CC(C)(C)C(=O)CN1C(=O)NC(C)(Cc2ccc3c(c2)OCO3)C1=O (configuration not stated)	i	1.2
O=S(=O)(c1ccc(Cl)cc1)N1CCCc2ccccc21	i	0.4
CN(C=O)CP(=O)(O)CN1CCCCC1	i	0.02
Cc1ccc(S(=O)(=O)N2CCOC2CNC(=O)C(=O)NCc2ccc(Cl)cc2)cc1 (configuration not stated)	i	0.47
CCOc1ccccc1CN1CCNC(=O)C1CC(=O)NCCN1CCOC1=O (configuration not stated)	i	1.7
N#Cc1c(Cl)c(Cl)c2nnc(-c3ccc(Br)cc3)n2c1Cl	i	-0.13
CC(=O)N1CCSc2ccc(S(=O)(=O)Nc3ccccc3C)cc21	i	-1
COc1ccc(NC(=O)C2CCC(=O)N2S(=O)(=O)c2ccc(C)cc2)cc1Cl (configuration not stated)	i	0.21
CSc1ccc(S(=O)(=O)Nc2ccccc2C(=O)N2CCOCC2)cc1	i	0.19
Oc1oc(-c2ccccc2)nc1C=Nc1cccc2ccccc12	-8.7*	0.64*
N#Cc1c(NC(=O)CSc2nc(N)cc(=O)[nH]2)sc2c1CCCCCC2	i	2.4
CNC(=O)CSc1nnc(C(C)C)n1C	i	0.03
COc1ccc(-n2nc3c(c2NC(=O)C24CC5CC(CC(C5)C2)C4)CS(=O)C3)cc1 (configuration not stated)	i	0.05
COc1ccccc1CN1C(=NC(=O)CCC2CCCC2)SC2CS(=O)(=O)CC21 (configuration not stated)	i	-0.82
COc1ccc(CNCC(O)(c2ccc(Cl)cc2)c2ccc(Cl)cc2)cc1	-7.7*	-0.01*
COC(=O)c1cccc(NC(=O)CN2CCc3ccccc3C2)c1	i	-1.8
C[C@]12C(=O)N(c3cccc(F)c3)C(=O)N1[C@@H]1c3ccccc3OC[C@@H]1[C@H]2c1ccccc1	i	0.9
CCC(C)(C)NC(=O)C(c1ccc(C)cc1)N(CC1CCCO1)C(=O)CCC(=O)Nc1ccccn1 (configuration not stated)	i	0.05
COC(=O)C1=C(C(=O)OC)[C@@H]2N(Cc3ccccc3)c3ccccc3[C@@]23C[C@@H](C(=O)OC)N(C(=O)COCc2ccccc2)C3=N1	i	0.58
Cc1ccc(C)c(S(=O)(=O)NCC(=O)NCc2ccco2)c1	i	3.5
COc1ccccc1N1CCN(CCC(=O)Nc2cccc(Cl)c2)CC1	i	-0.53
O=C(Nc1ccc2ccccc2c1)N1CCCN(CCOc2ccccc2)CC1	i	1.4
O=C(CSc1ccccc1)N1CCN(c2ccccc2)CC1	i	1
COc1cc(NC(=O)Cc2c(C(=O)O)[nH]c3ccccc23)cc(OC)c1OC	i	-2
Cc1ccc(-n2nc3c(N4CCC(C(=O)NCCc5ccco5)CC4)nnc(C)c3c2C)cc1	i	2.4
CCOC(=O)CSc1cn2c(n1)CCC2	i	1
COC(=O)CCNC(=O)Cc1c(C)n(C(=O)c2ccc(Cl)cc2)c2ccc(OC)cc12	i	-0.07
CC(Oc1ccc(Br)cc1)C(=O)Nc1ccc(N2CCOCC2)cc1N1CCOCC1 (configuration not stated)	i	-0.56
COc1ccc(C=O)cc1COc1ccc(C)cc1[N+](=O)[O-]	i	1.1
CCOc1ccc(-c2nc[nH]c2[N+](=O)[O-])cc1	i	0.61
COc1cccc(CNCC(O)(c2ccc(Cl)cc2)c2ccc(Cl)cc2)c1	i	-0.1
CCCc1nnc(SCC(=O)N2CCCCC2)n1CCCOC	i	1.1
CCC(C)(C)NC(=O)C(c1cccs1)N(CC1CCCO1)C(=O)Cn1nnc2ccccc21 (configuration not stated)	i	-0.4
CCCCn1nnnc1NCc1ccc(C)s1	i	2
CC1(c2ccc([N+](=O)[O-])cc2)CC(C)(C)N(C(=O)c2ccccc2)c2ccccc21 (configuration not stated)	i	1.3
CC1CCCCN1CCCNC(=O)c1nn(C)c2c1CS(=O)(=O)c1ccccc1-2 (configuration not stated)	i	-1.2
C[C@H](NC(=O)c1ccccc1Cl)C(=O)NCc1cccs1	i	0.41
Cc1ccc(C(=O)CSc2ccc(-c3ccncc3)nn2)cc1	i	0.19

# 4 entries from above, as labelled records:
> COC(=O)CCNC(=O)Cc1c(C)n(C(=O)c2ccc(Cl)cc2)c2ccc(OC)cc12
  KCNQ2 block: i
  KCNQ2 block baseline: -0.07

> COc1cccc(CNCC(O)(c2ccc(Cl)cc2)c2ccc(Cl)cc2)c1
  KCNQ2 block: i
  KCNQ2 block baseline: -0.1

> COc1ccccc1N1CCN(CCC(=O)Nc2cccc(Cl)c2)CC1
  KCNQ2 block: i
  KCNQ2 block baseline: -0.53

> O=C(CSc1ccccc1)N1CCN(c2ccccc2)CC1
  KCNQ2 block: i
  KCNQ2 block baseline: 1

# Remaining list, next part:
smiles	KCNQ2 block	KCNQ2 block baseline
O=C(NCc1ccco1)C(=O)c1cn(CC(=O)N2CCCCCC2)c2ccccc12	i	-0.35
O=C(/C=C/c1cccc(F)c1)N(c1ccccn1)C1CCCCC1	i	1.3
Cc1ccc(C)c(N(C(=O)CNC(=O)c2ccco2)C(C(=O)NC2CCCCC2)c2cccnc2)c1 (configuration not stated)	i	-2.6
O=C(c1cccnc1)N1CCN(CCCc2ccccc2)CC1	i	-0.28
CCNC(=O)c1sc(=S)n(-c2ccc(C)cc2)c1N	i	-0.35
O=C(CNc1n[nH]c(=O)[nH]c1=O)N/N=C/C=C/c1ccccc1	i	0.52
Cc1ccc(SC(C)c2nc(-c3ccccc3)no2)cc1 (configuration not stated)	i	-0.24
CCCCSc1ncnc2[nH]ncc12	i	-1.4
CCC12CN(C(=O)c3ccc(C)cc3)CC(CC)(CN(C(=O)c3ccc(C)cc3)C1)C2=O	i	0.73
CCCOc1ccc(NC(=O)CC2C(=O)N(Cc3ccccc3)C(=S)N2Cc2cccs2)cc1 (configuration not stated)	i	-0.09
CCC(CC)c1nnc(NC(=O)C2=COCCO2)s1	i	-0.01
O=C(c1cc(-c2cccs2)on1)N1CCCCC1	i	-0.19
COc1ccccc1CN1CC(C(=O)N(C)Cc2ccncc2C)CCC1=O (configuration not stated)	i	2.2
CCCCCn1c(CNC(=O)CCC)nc2ccccc21	i	1.2
CO/N=C(/CS(=O)Cc1ccccc1Cl)c1ccc(Cl)cc1Cl (configuration not stated)	i	1.4
O=C(NCCOc1ccccc1)c1ccccc1	i	2.6
COc1ccc(S(=O)(=O)/C(C#N)=C/Nc2cccc(OC)c2)cc1	i	0.1
O=C(COc1ccc(S(=O)(=O)Nc2ccccc2)cc1)N1CCOCC1	i	-0.64
COc1ccc([C@H](C)NC[C@H](O)c2ccc(O)c(NC=O)c2)cc1	i	-1.6
O=C(O)c1cc(Cl)c(Cl)cc1C(=O)Nc1cccnc1	i	2
O=C(NCc1ccco1)c1cc(-c2cccs2)on1	i	1.2
Nc1cccc2c1C(=O)N(C(=O)/C=C/c1cccc(Br)c1)C2=O	i	-0.58
COc1ccc(-c2cc(C(F)(F)F)n3nc(C(=O)N4CCOCC4)c(Cl)c3n2)cc1	i	7.2
CN(CCn1ccnc1)Cc1cn(-c2ccccc2)nc1-c1ccc2c(c1)OCO2	i	5.2
O=c1[nH]c2cccnc2n1Cc1ccccc1	i	-0.03
Brc1ccc(C2=CC(c3ccco3)n3ncnc3N2)cc1 (configuration not stated)	i	4.7
CCOc1ccc(CCNC(=O)CCc2nc(-c3ccc(C)cc3)no2)cc1OCC	i	-0.93
COc1ccc(S(=O)(=O)CCC(=O)NC2CCCCC2)cc1	i	1.1
O=Cc1cn[nH]c1-c1cccc([N+](=O)[O-])c1	i	0.32
O=C(NC(=S)Nc1ccc(N2CCOCC2)cc1)c1ccccc1	i	-2.7
COc1ccc(C(OC(=O)c2ccco2)C(=O)NC(C)(C)C)cc1 (configuration not stated)	i	-1.4
Cc1ccc(S(=O)(=O)N/N=C/c2cc([N+](=O)[O-])ccc2O)cc1[N+](=O)[O-]	i	0.11
C=CCNC(=O)c1ccc(-c2ccc([N+](=O)[O-])cc2)o1	i	0.37
Cc1ccc(C(=O)N2CCN(C3c4cccc5cccc(c45)C3NS(=O)(=O)c3ccccc3)CC2)cc1 (configuration not stated)	i	-1.8
CC1=C(Nc2ccc(C(=O)O)cc2)C(=O)c2ccccc2C1=O	i	-0.48
CC(=O)C1C(c2ccc3ncccc3c2)NC(=O)NC1(O)C(F)(F)F (configuration not stated)	i	-0.24
CC(=O)c1cc(C(=O)Nc2ccc3ccccc3c2)c(C)o1	i	-0.19
CC1(C)CN=c2s/c(=C\c3ccc(Cl)cc3)c(=O)n2C1	i	0.03

# Source: PubChem BioAssay (Johns Hopkins Ion Channel Center)
